From PubChem
A1 apoptosis 2 – A1 inhibition read as caspase activation. MEF A1-2A-BIM cells, caspase-Glo luminescence, 3 h; percent of clofoctol response, DMSO zero. caspase activation, % (no concentration beside the values). 24,000 tested, under 10 active. AID 2465; in the data active = caspase activation above about 5.9%;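 note: wells of about 30 µL received 50 nL stock; the first replicate is given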
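Material: mouse embryonic fibroblasts co-expressing A1 and BIM (A1-2A-BIM), primed for A1 dependence / Quantity: 2500 cells/well / Buffer or medium: RPMI-1640 growth medium with 10% FBS / Doses: 50 nL compound per well, pinned / Schedule: 3 h compound exposure at 37 °C / Signal: Caspase-Glo luminescence (DEVD substrate) / Measure: Caspase-3/7 activation, seen as rise in luminescence signal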
An asterisk follows results filed as active. An excerpt; count on the stated rates, not on these rows.

SMILES | A1 apoptosis 2
COc1ccc(CN(C)C[C@@H]2OCCCC[C@@H](C)Oc3ccc(NC(=O)Nc4c(C)noc4C)cc3C(=O)N([C@@H](C)CO)C[C@H]2C)cc1 | 1.5
C[C@@H]1CN([C@H](C)CO)C(=O)c2cc(NS(=O)(=O)c3ccc(Cl)cc3)ccc2O[C@H]1CN(C)S(=O)(=O)c1ccc(F)cc1 | 0.3
C=CCOC(=O)C(=O)/C=C/C1CC1 | 2.1
C[C@@H]1CN([C@H](C)CO)C(=O)CCCn2cc(nn2)CO[C@H]1CN(C)C(=O)Nc1ccc2c(c1)OCCO2 | -0.4
COc1ccc(CCN2C(=O)[C@@]3(Cc4ccccc42)c2ccccc2C(=O)N(Cc2ccccc2C(F)(F)F)[C@H]3c2ccc(CO)cc2)cc1 | -0.2
C[C@@H]1CN([C@H](C)CO)C(=O)CCCn2nncc2CO[C@H]1CN(C)S(=O)(=O)c1ccc(Oc2ccccc2)cc1 | -1.5
COc1ccc(S(=O)(=O)Nc2ccc3c(c2)CC(=O)N([C@@H](C)CO)C[C@H](C)[C@H](CN(C)S(=O)(=O)c2ccccc2)O3)cc1 | -1.1
CC(C)NC(=O)Nc1ccc2c(c1)C(=O)N([C@H](C)CO)C[C@H](C)[C@@H](CN(C)Cc1ccc(Cl)c(Cl)c1)OCCCC[C@H](C)O2 | 0.2
C[C@@H]1CCCCO[C@@H](CN(C)S(=O)(=O)c2cccs2)[C@@H](C)CN([C@@H](C)CO)C(=O)c2cc(NS(=O)(=O)c3cccs3)ccc2O1 | 0.6
COc1ccc(NC(=O)N(C)C[C@@H]2Oc3ccc(NS(=O)(=O)c4ccc(F)cc4)cc3C(=O)N([C@H](C)CO)C[C@@H]2C)cc1 | -0.6
CNC[C@H]1Oc2ccc(NC(=O)CCCN(C)C)cc2CC(=O)N([C@H](C)CO)C[C@@H]1C | 0.3
C[C@@H]1CN([C@H](C)CO)C(=O)c2cccc(NC(=O)Nc3cccc4ccccc34)c2O[C@@H]1CN(C)C(=O)Nc1cccc2ccccc12 | -1.3
COc1ccc(S(=O)(=O)Nc2ccc3c(c2)CC(=O)N([C@H](C)CO)C[C@H](C)[C@H](CN(C)Cc2ccc(C(=O)O)cc2)O3)cc1 | -0.2
C[C@@H]1CCCCO[C@@H](CN(C)C(=O)Nc2ccc(C(F)(F)F)cc2)[C@H](C)CN([C@H](C)CO)C(=O)c2cc(NS(C)(=O)=O)ccc2O1 | -1.2
C[C@H](CO)N1C[C@H](C)[C@@H](CN(C)S(=O)(=O)c2ccc(Cl)cc2)Oc2ccc(N(C)C)cc2C1=O | -2.3
COc1ccc(CN(C)C[C@H]2OCCCC[C@H](C)Oc3ccc(NS(=O)(=O)c4ccc(C)cc4)cc3C(=O)N([C@@H](C)CO)C[C@H]2C)cc1 | 0.9
COc1ccc(CN(C)C[C@H]2Oc3ccc(NS(C)(=O)=O)cc3CC(=O)N([C@@H](C)CO)C[C@H]2C)cc1 | 0.0
C[C@@H]1CN([C@H](C)CO)C(=O)c2cccc(N(C)C)c2O[C@H]1CN(C)Cc1ccc(Oc2ccccc2)cc1 | -0.3
Cc1ccc(S(=O)(=O)N(C)C[C@H]2Oc3ccc(NS(=O)(=O)c4ccccc4)cc3CC(=O)N([C@H](C)CO)C[C@@H]2C)cc1 | -0.5
COc1ccc(S(=O)(=O)N(C)C[C@@H]2Oc3ccc(NS(=O)(=O)c4c(C)noc4C)cc3C(=O)N([C@@H](C)CO)C[C@H]2C)cc1 | 0.4
C[C@H]1CN([C@@H](C)CO)C(=O)c2cc(NC(=O)Nc3ccc(F)cc3)ccc2O[C@@H]1CN(C)Cc1ccc(Cl)c(Cl)c1 | 0.8
COc1ccccc1CN1C(=O)c2ccccc2[C@@]2(Cc3ccccc3N(CCN3CCOCC3)C2=O)[C@@H]1c1ccc(CO)cc1 | 0.3
Cc1noc(C)c1NC(=O)N(C)C[C@H]1OCCCC[C@H](C)Oc2ccc(NS(=O)(=O)c3cccs3)cc2C(=O)N([C@H](C)CO)C[C@@H]1C | 0.0
C[C@@H]1CCCCO[C@@H](CN(C)S(=O)(=O)c2ccc(Cl)cc2)[C@@H](C)CN([C@@H](C)CO)C(=O)c2cc(NC(=O)CCC(F)(F)F)ccc2O1 | -0.6
C[C@H]1CCCCO[C@H](CN(C)Cc2ccccc2)[C@@H](C)CN([C@@H](C)CO)C(=O)c2cc(NC(=O)Nc3ccc4c(c3)OCO4)ccc2O1 | 1.6
C[C@H]1CCCCO[C@@H](CN(C)C)[C@@H](C)CN([C@@H](C)CO)C(=O)c2cc(NS(=O)(=O)c3cn(C)cn3)ccc2O1 | -0.7
C[C@@H]1CCCCO[C@H](CN(C)Cc2ccc(C(F)(F)F)cc2)[C@H](C)CN([C@@H](C)CO)C(=O)c2cc(NS(=O)(=O)c3ccc(F)cc3)ccc2O1 | -0.4
NCCCCCCNC(=O)[C@@H]1C[C@@H]2C(=O)N[C@@H](Cc3ccccc3)C(=O)N2[C@@H]1c1ccc(O)cc1 | 1.0
C[C@H]1CCCCO[C@H](CN(C)C(=O)Nc2ccc(F)cc2)[C@@H](C)CN([C@@H](C)CO)C(=O)c2cc(NS(C)(=O)=O)ccc2O1 | 2.6
C[C@@H]1CCCCO[C@@H](CN(C)C(=O)Nc2cccc3ccccc23)[C@@H](C)CN([C@@H](C)CO)C(=O)c2cc(N(C)C)ccc2O1 | 0.6
C[C@@H]1CCCCO[C@H](CN(C)C(=O)CCCN(C)C)[C@@H](C)CN([C@@H](C)CO)C(=O)c2cc(NC(=O)Nc3ccc(C(F)(F)F)cc3)ccc2O1 | -0.6
C[C@H](CO)N1C[C@H](C)[C@H](CN(C)C(=O)CCCN(C)C)OCCCC[C@H](C)Oc2ccc(NS(=O)(=O)c3ccccc3)cc2C1=O | -0.5
COc1ccc(S(=O)(=O)Nc2ccc3c(c2)C(=O)N([C@H](C)CO)C[C@@H](C)[C@H](CN(C)C(=O)Nc2ccccc2)OCCCC[C@H](C)O3)cc1 | -0.4
COc1cccc(NC(=O)N(C)C[C@@H]2OCc3cn(nn3)CCCC(=O)N([C@H](C)CO)C[C@H]2C)c1 | 0.5
C[C@@H]1CCCCO[C@@H](CN(C)C(=O)NC2CCCCC2)[C@H](C)CN([C@H](C)CO)C(=O)c2cc(NS(=O)(=O)c3ccc(F)cc3)ccc2O1 | -1.0
C[C@H]1CN([C@@H](C)CO)C(=O)Cc2cc(NC(=O)Cc3cn(C)c4ccccc34)ccc2O[C@@H]1CN(C)S(=O)(=O)c1cn(C)cn1 | -1.0
C[C@@H]1CN([C@@H](C)CO)C(=O)c2cc(NC(=O)CCC(F)(F)F)ccc2O[C@@H](C)CCCCO[C@@H]1CN(C)C(=O)Nc1ccc(F)cc1 | 0.1
CC(C)NC(=O)Nc1ccc2c(c1)C(=O)N([C@@H](C)CO)C[C@H](C)[C@@H](CN(C)C(=O)Nc1ccccc1)OCCCC[C@@H](C)O2 | 1.2
CCCN(C)C[C@H]1OCCCC[C@H](C)Oc2ccc(NC(=O)CCCN(C)C)cc2C(=O)N([C@H](C)CO)C[C@@H]1C | -0.8
COc1ccc(S(=O)(=O)N(C)C[C@H]2OCCCC[C@@H](C)Oc3ccc(NS(=O)(=O)c4ccccc4)cc3C(=O)N([C@H](C)CO)C[C@@H]2C)cc1 | 0.2

Reprinted from the listing (2 entries):
SMILES | A1 apoptosis 2
CCCN(C)C[C@H]1OCCCC[C@H](C)Oc2ccc(NC(=O)CCCN(C)C)cc2C(=O)N([C@H](C)CO)C[C@@H]1C | -0.8
COc1ccc(S(=O)(=O)N(C)C[C@H]2OCCCC[C@@H](C)Oc3ccc(NS(=O)(=O)c4ccccc4)cc3C(=O)N([C@H](C)CO)C[C@@H]2C)cc1 | 0.2

Following part.
SMILES | A1 apoptosis 2
C[C@H](CO)N1C[C@H](C)[C@H](CN(C)C(=O)c2ccc(N3CCN(C)CC3)cc2)OCc2cn(nn2)CCCC1=O | -0.7
Cc1noc(C)c1NC(=O)N(C)C[C@H]1Oc2ccc(NC(=O)Nc3ccccc3)cc2CC(=O)N([C@@H](C)CO)C[C@@H]1C | 1.2
C[C@@H]1CN([C@@H](C)CO)C(=O)Cc2cc(NS(C)(=O)=O)ccc2O[C@@H]1CN(C)S(C)(=O)=O | 3.0
C[C@@H]1CN([C@@H](C)CO)C(=O)Cc2cc(NC(=O)C3CC3)ccc2O[C@H]1CN(C)Cc1ccc(Cl)c(Cl)c1 | 1.0
O=C(N/N=C/c1ccc(-c2cccc(Cl)c2)o1)c1ccccc1O | -0.6
C[C@H](CO)N1C[C@H](C)[C@H](CN(C)C(=O)Nc2ccc(F)cc2)Oc2ccc(NC(=O)CCC(F)(F)F)cc2CC1=O | 0.9
C[C@H](CO)N1C[C@H](C)[C@@H](CN(C)C(=O)Nc2ccc(F)cc2)Oc2ccc(NC(=O)c3ccncc3)cc2C1=O | 0.6
COc1ccc(S(=O)(=O)N(C)C[C@H]2OCc3cn(nn3)CCCC(=O)N([C@H](C)CO)C[C@H]2C)cc1 | -0.2
C[C@@H]1CN([C@H](C)CO)C(=O)Cc2cc(N(C)C)ccc2O[C@H]1CN(C)C(=O)Nc1ccc(C(F)(F)F)cc1 | -0.8
C[C@@H]1CN([C@@H](C)CO)C(=O)c2cccc(NS(=O)(=O)c3ccccc3)c2O[C@H]1CN(C)C(=O)Nc1ccccc1 | 0.5
Cc1ccc(S(=O)(=O)Nc2ccc3c(c2)C(=O)N([C@H](C)CO)C[C@@H](C)[C@@H](CN(C)S(=O)(=O)c2ccc(F)cc2)OCCCC[C@H](C)O3)cc1 | -0.8
C[C@H]1CN([C@@H](C)CO)C(=O)c2cc(NC(=O)C3CCCCC3)ccc2O[C@H]1CN(C)Cc1ccc2c(c1)OCO2 | -0.9
COc1ccc(S(=O)(=O)N(C)C[C@@H]2Oc3ccc(NS(=O)(=O)c4cn(C)cn4)cc3C(=O)N([C@@H](C)CO)C[C@@H]2C)cc1 | 0.1
C[C@H](CO)N1C[C@H](C)[C@@H](CN(C)C(=O)Nc2ccc(F)cc2)OCCCC[C@H](C)Oc2ccc(NC(=O)NC3CCCCC3)cc2C1=O | -1.3
C[C@@H]1CN([C@@H](C)CO)C(=O)c2cc(NC(=O)Nc3ccccc3)ccc2O[C@@H]1CN(C)Cc1ccc(C(=O)O)cc1 | -0.2
C[C@@H]1CN([C@@H](C)CO)C(=O)c2cccc(NC(=O)C3CCOCC3)c2O[C@H]1CN(C)Cc1ccc(Oc2ccccc2)cc1 | 0.4
COc1cccc(-c2cnc3c(c2)C(=O)N([C@H](C)CO)C[C@H](C)[C@H](CN(C)C)O3)c1 | 0.9
COc1ccc(NC(=O)N(C)C[C@H]2Oc3ccc(NC(=O)Nc4ccc(C(F)(F)F)cc4)cc3C(=O)N([C@@H](C)CO)C[C@@H]2C)cc1 | 1.3
COc1ccc(CN(C)C[C@H]2OCCCC[C@H](C)Oc3ccc(NS(=O)(=O)c4ccccc4)cc3C(=O)N([C@H](C)CO)C[C@H]2C)cc1 | -0.4
C[C@H](CO)N1C[C@H](C)[C@H](CN(C)Cc2ccc(Oc3ccccc3)cc2)Oc2ccc(NC(=O)NC3CCCCC3)cc2CC1=O | 2.4

Copied from the list.
In A1 apoptosis 2, C[C@H]1CN([C@@H](C)CO)C(=O)c2cc(NC(=O)Nc3ccc(F)cc3)ccc2O[C@@H]1CN(C)Cc1ccc(Cl)c(Cl)c1 is listed with 0.8
In A1 apoptosis 2, C[C@@H]1CN([C@@H](C)CO)C(=O)c2cccc(NC(=O)C3CCOCC3)c2O[C@H]1CN(C)Cc1ccc(Oc2ccccc2)cc1 is listed with 0.4
In A1 apoptosis 2, C[C@@H]1CCCCO[C@@H](CN(C)C(=O)NC2CCCCC2)[C@H](C)CN([C@H](C)CO)C(=O)c2cc(NS(=O)(=O)c3ccc(F)cc3)ccc2O1 is listed with -1.0
In A1 apoptosis 2, CC(C)NC(=O)Nc1ccc2c(c1)C(=O)N([C@H](C)CO)C[C@H](C)[C@@H](CN(C)Cc1ccc(Cl)c(Cl)c1)OCCCC[C@H](C)O2 is listed with 0.2
In A1 apoptosis 2, COc1ccc(S(=O)(=O)N(C)C[C@H]2OCc3cn(nn3)CCCC(=O)N([C@H](C)CO)C[C@H]2C)cc1 is listed with -0.2
In A1 apoptosis 2, C[C@H](CO)N1C[C@H](C)[C@H](CN(C)C(=O)CCCN(C)C)OCCCC[C@H](C)Oc2ccc(NS(=O)(=O)c3ccccc3)cc2C1=O is listed with -0.5

Going on with the list:
SMILES | A1 apoptosis 2
C#CCNC(=O)C1=C[C@H](c2csc3ccccc23)C[C@H](OCCCCO)O1 | -0.1
Cc1noc(C)c1S(=O)(=O)N(C)C[C@@H]1Oc2ccc(NC(=O)Nc3ccccc3)cc2CC(=O)N([C@H](C)CO)C[C@@H]1C | 0.2
C[C@H]1CCCCO[C@H](CN(C)C(=O)c2ccncc2)[C@@H](C)CN([C@@H](C)CO)C(=O)c2cc(NS(=O)(=O)c3ccc(F)cc3)ccc2O1 | 0.0
Cc1ccc(S(=O)(=O)N(C)C[C@@H]2OCCCC[C@H](C)Oc3ccc(NC(=O)Nc4ccc(C(F)(F)F)cc4)cc3C(=O)N([C@@H](C)CO)C[C@H]2C)cc1 | -0.8
C[C@@H]1CN([C@@H](C)CO)C(=O)c2cccc(NC(=O)CCCCCC(=O)Nc3ccccc3N)c2O[C@H]1CN(C)Cc1ccc(Oc2ccccc2)cc1 | -0.1
COc1ccc(S(=O)(=O)N(C)C[C@@H]2OCCCC[C@H](C)Oc3ccc(NS(=O)(=O)c4ccc(C)cc4)cc3C(=O)N([C@@H](C)CO)C[C@H]2C)cc1 | -1.2
CC(C)NC(=O)Nc1ccc2c(c1)CC(=O)N([C@@H](C)CO)C[C@H](C)[C@@H](CN(C)CC1CCCCC1)O2 | 0.3
COc1ccc(CN(C)C[C@H]2Oc3c(NC(=O)c4ccncc4)cccc3C(=O)N([C@@H](C)CO)C[C@@H]2C)cc1 | -1.7
C[C@H](CO)N1C[C@H](C)[C@H](CN(C)C(=O)Nc2cccc3ccccc23)Oc2ccc(NC(=O)Cn3cnnn3)cc2C1=O | 1.0
C[C@@H]1CN([C@@H](C)CO)C(=O)c2cc(NC(=O)Nc3ccc4c(c3)OCO4)ccc2O[C@@H]1CN(C)Cc1ccc(Oc2ccccc2)cc1 | 0.9
